# GIV Gai3 FP = blocks GIV peptide binding to rat Galpha-i3 | P08753 | Galpha-i3/FITC-GIV peptide fluorescence polarization, 90 min; stronger effect = lower value; scaled: aluminum fluoride 0%, vehicle 100% | percent of control (FP), % (no concentration beside the values) | hit rate 0.42% among 210,000;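 active = replicate mean at 85% of control or lower, very high polarization wells dropped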;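 note: wells of about 15 µL received 100 nL stock; the first replicate is given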
# Target sequence (P08753 whole entry, looked up): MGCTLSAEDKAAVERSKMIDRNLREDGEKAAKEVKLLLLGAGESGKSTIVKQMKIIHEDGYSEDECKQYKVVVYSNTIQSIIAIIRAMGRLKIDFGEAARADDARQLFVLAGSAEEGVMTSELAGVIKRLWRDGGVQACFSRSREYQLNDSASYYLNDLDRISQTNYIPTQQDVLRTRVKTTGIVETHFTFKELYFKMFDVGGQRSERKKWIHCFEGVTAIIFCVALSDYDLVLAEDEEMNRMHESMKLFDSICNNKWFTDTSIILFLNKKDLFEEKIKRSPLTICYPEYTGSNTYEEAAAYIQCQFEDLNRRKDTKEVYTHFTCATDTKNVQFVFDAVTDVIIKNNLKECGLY
# HCMV UL50-53 inh = cytomegalovirus nuclear egress complex inhibition | inhibition, % (concentration not given with the values) | HTRF UL50-UL53 interaction, normalized percent inhibition | hit rate 0.15% among 190,000;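 active = both replicates at 50% or more, plus weaker picks with an unusually low signal ratio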;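 note: stock transfer was 100 nL into about 20 µL; 0% = negative control wells and 100% = wells with untagged competitor protein; inactives centre near -12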
# Sa growth 42C = blocks Staphylococcus aureus growth; S. aureus RN4220 growth, OD600, 20 h, 42 °C; stronger effect = lower value; relative growth, % (concentration not given with the values); hit rate 0.53% among 170,000; AID 720641;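 active = growth at 42 °C up to 50% and 20 or more points under that at 30 °C, or under 10% at both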;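 note: 300 nL library stock went into each well; scaled to the means of positive and negative controls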
# Sa growth 42C second temp = also measured in Sa growth 42C; calls as there; relative growth, %; measured here: growth at 30 °C;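 optical density after 20 h as mean of two plates; 100% = untreated growth and lower means inhibition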
# An asterisk follows results filed as active; / = not tested or not shown; & = joins results of further samples.
SMILES,GIV Gai3 FP,HCMV UL50-53 inh,Sa growth 42C,Sa growth 42C second temp
COc1ccc(CNC(=O)C2CC(=O)N(C(C)(C)C)C2)cc1 (stereo unspecified),101,1,64,90
CC(=O)CC1(OC(C)=O)C(=O)N(C)c2ccccc21 (stereo unspecified),100,-13,/,/
Cc1ccc(C)c(-n2nnnc2SCC(=O)Nc2cc(C(N)=O)cc(C(N)=O)c2)c1,/,-28,114,73
COC(=O)c1sccc1NC(=O)CC1(CC(=O)O)CCCC1,/,-11,174,102
CCC(C)OC(=O)C(C)Oc1ccc2c3c(c(=O)oc2c1)CCC3 (stereo unspecified),103,/,93,99
N#CC1=C(N)N=C(SCC(=O)Nc2nccs2)C(C(N)=O)C12CCCCC2 (stereo unspecified),95,-48,97,77
COc1ccc2c(c1)CCc1c(C(=O)Nc3cc(C)n(Cc4ccc(Cl)cc4)n3)noc1-2,96,-30,85,91
Cc1ccccc1NC(=O)Cn1c(=O)n(CCCS(=O)(=O)C2CCCCC2)c(=O)c2ccccc21,104,/,117,93
O=C(CSc1nc2sc3c(c2c(=O)[nH]1)CCCC3)NCc1ccccc1,107,-20,/,/
COC(=O)c1sc(-c2ccccc2)cc1NC(=O)Nc1ccccc1Cl,110,10,112,90
CCOC(=O)/C(C#N)=C1\SCC(=O)N1c1ccc(OC)cc1,/,-12,89,91
COc1cc(C(=O)Nc2ccc(-c3nnc4n3CCCCC4)cc2)cc(OC)c1OC,103,5,99,97
CC(CC#N)C(=O)c1ccc(Cl)cc1 (stereo unspecified),/,-32,117,86
CCOc1ccccc1CNC(=O)CN1C(=O)CCn2nc(-c3cn(C)c4ccccc34)cc21,103,/,120,98
CCC1Oc2ccc(Cl)cc2N(CC(=O)Nc2ccc3nc(NS(C)(=O)=O)sc3c2)C1=O (stereo unspecified),103,-20,/,/
CC(C)C(=O)Nc1nc(OC(=O)N(c2ccccc2)c2ccccc2)c2[nH]cnc2n1,/,3,94,104
CCOc1ccc(CCNC(=O)c2ccc(N3CCCC3=O)cc2)cc1OCC,99,-1,95,90
CCOc1ccccc1N(CC(=O)NCCSc1ccccc1)S(=O)(=O)c1ccccc1,102,-20,114,98
CCn1c(-c2ccccc2)c(C(=O)CSc2nnc(-c3cccnc3)n2N)c2ccccc21,/,-4,96,93
CC(C)CNC(=O)C1CC(c2ccccc2)=NO1 (stereo unspecified),103,43,123,90
CN(C(=O)CSc1cn(CC(=O)N2CCOCC2)c2ccccc12)c1ccccc1,109,/,122,88
CCN(c1nc2nc(C)cc(C)n2n1)S(=O)(=O)c1ccc(Cl)cc1,107,-29,/,/
COC(=O)c1ccc(CSc2ncnc3[nH]ncc23)cc1,/,7,85,100
Cc1nc(-n2[nH]c(C)c(CCC(=O)Nc3ccc(F)cc3)c2=O)sc1C,98,-13,/,/
O=C(O)c1cccc(-c2cc3ccccc3oc2=O)c1,99,-102,122,82
N#Cc1ccc(OC(=O)Cc2coc3cc4c(cc23)CCC4)cc1,/,-33,110,80
COC(=O)c1cnn2c(C(F)(F)F)cc(-c3ccccc3)nc12,103,-76,102,87
O=C(Nn1cnc2c(cnn2-c2ccccc2)c1=O)c1ccccc1,99,-11,93,90
COC(=O)c1ccc(COC(=O)C23CC4CC(CC(O)(C4)C2)C3)o1,/,-17,93,93
COc1ccc(C(=O)Cc2ccc(OC)c(OC)c2)c(OC)c1,107,3,97,110

# Gathered by group, the compounds so far with a Cl atom.
SMILES,GIV Gai3 FP,HCMV UL50-53 inh,Sa growth 42C,Sa growth 42C second temp
COc1ccc2c(c1)CCc1c(C(=O)Nc3cc(C)n(Cc4ccc(Cl)cc4)n3)noc1-2,96,-30,85,91
COC(=O)c1sc(-c2ccccc2)cc1NC(=O)Nc1ccccc1Cl,110,10,112,90
CC(CC#N)C(=O)c1ccc(Cl)cc1 (stereo unspecified),/,-32,117,86
CCC1Oc2ccc(Cl)cc2N(CC(=O)Nc2ccc3nc(NS(C)(=O)=O)sc3c2)C1=O (stereo unspecified),103,-20,/,/
CCN(c1nc2nc(C)cc(C)n2n1)S(=O)(=O)c1ccc(Cl)cc1,107,-29,/,/

# (further entries)
SMILES,GIV Gai3 FP,HCMV UL50-53 inh,Sa growth 42C,Sa growth 42C second temp
CNC(=O)c1ccc(CN2C(=O)CSc3ncccc32)cc1,104,-10,/,/
Brc1ccc(-c2cc(-c3nc4c5ccccc5ncn4n3)[nH]n2)cc1,99,-16,/,/
c1ccc(CNC2CCCC2)nc1,107,-15,98,72
O=C(COC(=O)c1ccccc1Cl)NC1CCCC1,/,-17,85,94
C=CCOc1ccccc1CN1CCCCC1,108,2,99,106
Cc1cccc(C)c1NC(=O)CCCn1c(C)c2cnn(-c3ccccc3)c(=O)c2c1C,107,0,113,67
CNC(=O)C(C)n1c2ccccc2c2nc(=O)cc(C)n21 (stereo unspecified),99,/,84,81
Cc1cc(N2CCN(C)CC2)nc2ccc(NC(=O)c3ccc(C(C)(C)C)cc3)cc12,111,6,103,99
COC(=O)c1cc(=O)n2c(sc3ccccc32)c1C#N,100,-5,92,96
COc1ccc(-c2nnc(SCCN3C(=O)c4ccccc4C3=O)o2)cc1,/,0,99,95
Cc1ccc(-c2cn3cccc(C)c3n2)cc1NS(=O)(=O)c1ccccc1,97,-18,102,90
Cc1ccc(NC(=O)CN2C(=O)CC(c3ccccc3)C2=O)cc1C (stereo unspecified),/,-6,116,102
O=C(CSc1nc2c([nH]c3ccccc32)c(=O)n1-c1ccc(Cl)cc1)c1ccccc1,95,/,101,94
Cc1ccc(OCc2nc(-c3ccc(C(=O)N4CCN(c5ccccn5)CC4)cc3)oc2C)cc1,105,-12,/,/
O=C(Cn1ncc2c([nH]c3ccccc32)c1=O)Nc1ccc(F)cc1F,101,/,112,84
COc1cccc(NC(=O)C2CCCN(c3ncnc4oc(C)c(C)c34)C2)c1 (stereo unspecified),103,-25,/,/
COc1ccc(CNCCN(C)C)cc1,/,6,114,99
COc1ccccc1N(Cc1c(C)noc1C)S(=O)(=O)c1cccs1,/,9,110,99
O=C(Oc1ccc2ccccc2c1)N1CCOCC1,95,-17,120,83
COc1ccc(NC(=O)CN2CCCN(Cc3ccc(Cl)cc3)S2(=O)=O)cc1Cl,102,-1,105,82
Cc1nnc(SCc2cccc(C(=O)c3ccccc3)c2)[nH]c1=O,101,/,117,88
COc1ccccc1CNc1ncccc1N1C(=O)CCC1=O,105,-14,99,91
Cc1ccc(OC(=O)CSc2nc(-c3ccccc3)nc3cc(=O)[nH]n23)cc1,95,4,/,/
CCn1c(CN2CCCCC2C)nc2c1c(=O)n(C)c(=O)n2C (stereo unspecified),97,0,116,89
Cc1nc2ccccc2c(=O)n1Cc1noc(/C=C/c2ccccc2Cl)n1,105,-28,/,/
CCOC(=O)Cn1c(=O)c(-c2ccccc2NC(C)=O)nc2ccccc21,101,-36,/,/
CCn1c(=O)cc(SCC(=O)N2CCCCC2)c2ccccc21,96,/,71,79
CN(CCN1CCOCC1)C1CCN(C(=O)CNC(=O)/C=C/c2cccs2)CC1,106,-38,106,90
CC1CCc2c(sc(NC(=O)Cc3ccccc3)c2C(=O)Nc2ccc(Cl)cc2)C1 (stereo unspecified),103,-31,90,90
CN(C)c1ccc(-c2noc(CCC3CCCC3)n2)cc1,110,-27,/,/

# Arranged by molar mass (low to high): 4 of the compounds above
SMILES,GIV Gai3 FP,HCMV UL50-53 inh,Sa growth 42C,Sa growth 42C second temp
COc1ccccc1CNc1ncccc1N1C(=O)CCC1=O,105,-14,99,91
CCOC(=O)Cn1c(=O)c(-c2ccccc2NC(C)=O)nc2ccccc21,101,-36,/,/
Cc1ccc(OC(=O)CSc2nc(-c3ccccc3)nc3cc(=O)[nH]n23)cc1,95,4,/,/
CC1CCc2c(sc(NC(=O)Cc3ccccc3)c2C(=O)Nc2ccc(Cl)cc2)C1 (stereo unspecified),103,-31,90,90

# The list continues:
SMILES,GIV Gai3 FP,HCMV UL50-53 inh,Sa growth 42C,Sa growth 42C second temp
N#C/C(=C(/O)C(F)(F)F)c1nc2ccccc2[nH]1,109,/,21,9
Cc1cc(C)cc(NC(=O)C2CCN(S(=O)(=O)c3c(C)[nH]c(C)c3C(=O)N3CCCC3)CC2)c1,106,-2,/,/
COCCn1c(SCC(=O)c2ccc3c(c2)CCCN3S(C)(=O)=O)nc2ccccc21,/,1,113,85
CCOC(=O)COc1ccccc1/C=N/O,98,-8,99,94
CC(C)(C)c1nn2cnnc2n(/N=C/c2ccccc2)c1=O,105,-6,104,94
Cc1nc(S(=O)(=O)NC2CCCCC2)c(C#N)c(C)c1Cl,100,4,97,83
Cc1ccc2c(c1)OC=CC(C(=O)NCc1ccccc1)=C2,101,-10,/,/
Cc1ccc2c(c1)c1c(c(=O)n(Cc3ccccc3)c(=O)n1Cc1cccc(F)c1)n2C,110,/,100,90
COc1ccc(N2CCN(C(=O)Cn3cnc4sc(C)c(S(=O)(=O)N5CCC(C)CC5)c4c3=O)CC2)cc1,103,2,96,103
O=c1c2cc3c(=O)n(Cc4cccs4)ccc3nc2ccn1Cc1cccs1,111,1,99,101
Cc1cc(C)c(/C=C/c2onc(C)c2S(=O)(=O)N2CCC(C(=O)NCc3ccco3)CC2)c(C)c1,102,/,97,76
CCCCC1(C)OC(=O)C(=Cc2ccc(OCC)c(OC)c2)C(=O)O1 (stereo unspecified),98,/,117,88
CC(=O)c1ccc(NC(=O)C(C)n2nc(-c3ccccc3)ccc2=O)cc1 (stereo unspecified),99,-18,101,86
CCc1ccc(/C=N/N2CCOCC2)cc1,/,-37,102,91
O=C(NCc1ccccc1)C1CC(=O)N(c2ccccc2)C1 (stereo unspecified),99,4,102,95
Cc1ccc2oc(C(=O)Nc3ccc(F)cc3)cc(=O)c2c1,95,-21,/,/
CC(C)C(NC(=O)c1ccccc1)C(=O)N1CCCCCC1 (stereo unspecified),/,-36,117,87
O=C(Oc1cc(=O)oc2c1c(=O)n1c3c(cccc23)CC1)c1ccccc1,106,-28,82,36
O=C(c1ccccc1)N1CCC(O)(c2cccnc2)CC1,100,3,101,81
CC1=Nc2ccc(C)cc2N(Cc2ccccc2)C(=O)C1,100,-6,103,89
NC(=O)C1CCN(C(=O)c2ccc(Cn3c(=O)c4cccn4c4cccnc43)cc2)CC1,105,-11,/,/
NC(=O)c1cnc2sc3c(n2c1=O)CCCC3,93,-20,/,/
O=C(NCCCc1ccccc1)C1CCN(C(=O)N2CCOc3ccc(Cl)cc32)CC1,103&98,-2&7,118,92
CCN(CC)c1ccc2cc(-c3c(O)c4ccccc4[nH]c3=O)c(=O)oc2c1,/,-9,101,91
Cc1cc2ncc(-c3ccnc(SCc4c(Cl)cccc4Cl)n3)c(C)n2n1,105,12,113,99
CCCCc1ccc(NC(=O)c2cc(-c3ccc(C)c(F)c3)on2)cc1,101,-14,90,91
CC1CCCCN1CCNC(=O)C1c2ccccc2C(=O)N(C2CCCC2)C1c1cccs1 (stereo unspecified),109,/,104,96
O=c1ccc(-c2ccc(S(=O)(=O)NCCC3=CCCCC3)s2)n[nH]1,98,-21,94,88
CCOC(=O)C1CCCN(C(=O)c2csc(-c3ccc4c(c3)CCO4)n2)C1 (stereo unspecified),100,-5,83,78
CCC(=O)N1CCCC1c1nc2ccccc2n1CCOc1ccccc1Cl (stereo unspecified),110,-9,/,/
CCn1c(C(F)(F)F)nc2ccccc21,100,-16,/,/
O=C(NC1CCCC1)N1CCCN(c2ccc(=O)n(-c3ccccc3)n2)CC1,106,-22,/,/
Cc1ccc(S(=O)(=O)c2cnc(SCC(=O)N3CCCc4ccccc43)[nH]c2=O)cc1,103,/,98,99
COc1cc(OC)c(N(C)C(=O)c2cn(C3CCCC3)c(=O)c3c2c2ccccc2n3C)cc1Cl,103,-18,108,85
CN(C1CCCCC1)S(=O)(=O)c1ccc2c(c1)c(=O)c(C(=O)NCCc1ccccc1)cn2C,102,-12,97,88
CCCCn1c(CCc2ccc(S(=O)(=O)N3CCOCC3)cc2)nc2cc(S(N)(=O)=O)ccc21,/,-27,92,82
COc1ccc(Nc2cc(C(=O)NCCc3ccccc3)c3ccccc3n2)cc1OC,104&103,-28&19,99,90
CCOC(=O)/C(C#N)=C1\C(=O)Nc2ccccc21,103,-22,104,70
O=C(NCCc1ccc(Cl)cc1)c1ccc2nccnc2c1,97,-10,105,83
O=C(NCCS(=O)(=O)Cc1ccc(F)cc1)c1cccc(OC(F)(F)F)c1,104,7,112,109
COC(=O)Cn1c2ccccc2c2nc(=O)cc(C)n21,107,-6,121,87
Cc1ccn2c(=O)c(NC(=O)C3CCCCC3)c(C)nc2c1,104,-36,99,82
CCOc1ccccc1NCc1nc2nc3c(c(=O)n2[nH]1)CCC3,116,-10,/,/
CCN(CCN1C(=O)CCC1=O)c1cccc(NC(C)=O)c1,101,-6,98,91
COc1cc(/C=C(\C#N)C(=O)NCC2CCCO2)ccc1O (stereo unspecified),107,-28,103,97
CCCN1Cc2cccc(C(=O)NC3CCCCCC3)c2C1=O,106,-24,71,76
C=CCN1C(=O)c2oc3ccccc3c(=O)c2C12C(=O)N(C)c1ccccc12 (stereo unspecified),101,-16,102,98
Cc1ccc(CN2C(=O)N(c3ccc(C)c(Cl)c3)S(=O)(=O)c3ccccc32)cc1,106,/,120,110
O=c1c2sccc2n(Cc2cc(=O)n3ccccc3n2)c(=O)n1-c1cc(F)ccc1F,106,-36,84,83
CCOc1ccc(NC(=O)NCCn2c(C(F)(F)F)nc3ccccc32)cc1,105,-11,/,/
